Source: PubChem (several laboratories)
Arbovirus inh: blocks arbovirus infection; arbovirus infection cell-based antiviral screen; inhibition, % at 10 µM; 200,000 compounds, 0.37% hits; AID 1251;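 active means inhibition from about 30%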;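 further: bluetongue infection of BSR cells; cell survival read as ATP light after 72 h; 0% = infected wells without compound and 100% = uninfected wells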
YopH PTP inh: YopH (Yersinia) phosphatase inhibition | fluorescence Ex485/Em525 | inhibition, %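 (about 10 µM by stock and volumes)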 | 140,000 compounds, 0.16% hits;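 active means inhibition of 50% or more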;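 further: controls were vehicle for no effect and minimum signal wells for full effect; inactives centre near -20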
RecA intein inh: Mtb RecA intein splicing inhibition; P9WHJ3; cell-free RecA intein splicing, fluorescence; inhibition, %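 (about 9 µM by stock and volumes)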; 290,000 compounds, 0.75% hits; AID 2221; in the data active means inhibition above about 30%; inconclusive means no clear call, values can overlap the other calls;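 further: 0% = vehicle wells and 100% = reference inhibitor control wells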
Target sequence (P9WHJ3 whole entry, looked up): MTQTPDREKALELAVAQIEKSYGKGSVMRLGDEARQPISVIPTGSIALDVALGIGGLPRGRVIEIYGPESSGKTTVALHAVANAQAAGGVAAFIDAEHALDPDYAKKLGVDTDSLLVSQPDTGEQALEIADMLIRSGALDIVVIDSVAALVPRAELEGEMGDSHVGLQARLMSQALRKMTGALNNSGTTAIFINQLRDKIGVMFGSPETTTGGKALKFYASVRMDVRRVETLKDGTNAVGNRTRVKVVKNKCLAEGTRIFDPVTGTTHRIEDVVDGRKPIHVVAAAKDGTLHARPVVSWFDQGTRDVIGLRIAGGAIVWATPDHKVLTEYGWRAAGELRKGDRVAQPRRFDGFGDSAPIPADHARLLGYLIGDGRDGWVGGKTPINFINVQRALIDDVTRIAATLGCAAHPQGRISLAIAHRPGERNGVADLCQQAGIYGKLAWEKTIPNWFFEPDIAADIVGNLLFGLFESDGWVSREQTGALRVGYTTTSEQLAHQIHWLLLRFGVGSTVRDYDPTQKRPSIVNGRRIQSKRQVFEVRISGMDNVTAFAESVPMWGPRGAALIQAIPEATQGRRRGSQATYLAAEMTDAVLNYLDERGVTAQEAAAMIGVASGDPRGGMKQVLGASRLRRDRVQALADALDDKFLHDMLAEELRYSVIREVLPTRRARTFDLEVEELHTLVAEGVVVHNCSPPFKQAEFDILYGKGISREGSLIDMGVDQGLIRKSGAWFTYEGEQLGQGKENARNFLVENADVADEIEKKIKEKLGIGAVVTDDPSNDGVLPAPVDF
Mtb bLac sens: beta-lactam sensitization of Mtb H37Rv; AID 434955; 330,000 compounds, 0.27% hits; M. tuberculosis H37Rv growth with meropenem, percent inhibition; hits of this screen are not shown here; inhibition, % at 25 µM;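 active means about 74% or more and at least 40 points above the plate without the antibiotic, then above 30% in a dose series; inconclusive means first-round hits that could not be retested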;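 further: growth measured after seven days incubation then overnight dye step; 0% = bacteria only wells and 100% = bacteria with antibiotic; twin plates without the antibiotic show which effects depend on it; some results filed as inactive read as strong as hits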
Mtb growth: M. tuberculosis H37Rv growth inhibitors, H37Rv strain (AID 1626); 220,000 compounds, 0.95% hits; M. tuberculosis H37Rv growth inhibition; higher % means a stronger effect; inhibition, % at 10 µM, or IC50 in µM where a hit was titrated;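 active means confirmed in a dose series; inconclusive means inhibition above 80% but not taken into the dose series; inactive means below 80% or under 30% at every dose of the series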;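 further: bacteria incubated seven days before Alamar blue readout; 0% = bacteria only wells and 100% = bacteria with antibiotic wells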
* hit, by the source's call; ? = inconclusive; / = no result given.

The opening 21 records, ahead of the listing:
no.	Molecule	Arbovirus inh	YopH PTP inh	RecA intein inh	Mtb bLac sens	Mtb growth
1	Cc1ccc(-n2cc(CN3CCCN(C=O)CC3)c(-c3ccc(F)cc3)n2)cc1	-7	/	0.4	7	-4%
2	Cc1ccc(CS(=O)(=O)CCC(=O)N2CCC3(CC2)OCCO3)cc1	-1	-17	2.3	-5	-5%
3	O=C(N/N=C/c1ccccc1O)c1cc[n+]([O-])cc1	/	/	2.5	2	/
4	CN1CCN(Cc2nc3c(c(=O)[nH]c(=O)n3C)n2Cc2c(F)cccc2Cl)CC1	/	/	-2.0	-2	7%
5	O=C(C1=C[C@@H](c2ccccc2)C[C@@H](OCc2ccc(CO)cc2)O1)N1CCCCCCC1	0	/	6.5	-4	/
6	COc1ccc(CCC(=O)N2CCCC(Nc3ccccc3)C2)cc1OC (centres undefined)	/	/	-0.1	?	/
7	O=C(Nc1cccc(NC(=O)c2cccc(F)c2)c1)c1ccccc1	/	/	-4.9	4	/
8	COc1ccccc1NC(=S)N(c1ccccc1)C(C)C	13	/	-1.1	37	1%
9	COc1ccc([C@@H](C)NC(=O)CCc2nnc(-c3cc(C)on3)o2)cc1	4	/	0.6	-2	2%
10	CSc1cccc(NS(=O)(=O)c2cc(Br)cnc2N)c1	/	/	-1.5	-4	/
11	COc1cccc(/C=N/NC(=O)c2cc(C34CC5CC(CC(C5)C3)C4)[nH]n2)c1	0	0	5.7	78	-6%
12	Cc1ccc(-c2nnc(-c3ccccc3S(=O)(=O)Cc3ccc(Cl)cc3)o2)cc1	-1	-27	0.8	23	7%
13	CCOC(=O)C(Cc1ccccc1)C(=O)c1ccco1 (centres undefined)	/	/	-0.7	-2	/
14	COC(=O)c1sccc1NC(=O)c1cccc(OC)c1	3	-7	0.6	-4	38%
15	COc1cccc(NC(=S)NCc2ccc3c(c2)cc(C)n3C)c1	-8	/	5.0	/	5%
16	O=C(CSc1nnc(-c2ccc(Br)cc2)o1)Nc1cccc2ccccc12	0	-10	-1.1	51	5%
17	O=C(NCCNC1CCN(Cc2ccccc2)CC1)c1cccs1	-8	-22	0.2	-17	/
18	Cc1occc1C(=O)Nc1cccc([N+](=O)[O-])c1C	/	/	2.5	-4	-2%
19	COc1ccc(CC(=O)Nc2c(C(=O)N3CCN(c4ccccc4)CC3)oc3ccccc23)cc1OC	/	/	2.0	-1	/
20	CC(=O)N(Cc1cccnc1)Cc1cc2ccccc2[nH]c1=O	4	-49	0.0	-9	-7%
21	CCc1ccc2nc(SCC(=O)NCC3CCCO3)c(C#N)cc2c1 (centres undefined)	6	/	-1.8	2	-6%

The listing, from the first entry:
no.	Molecule	Arbovirus inh	YopH PTP inh	RecA intein inh	Mtb bLac sens	Mtb growth
1	Cc1ccc(-n2cc(CN3CCCN(C=O)CC3)c(-c3ccc(F)cc3)n2)cc1	-7	/	0.4	7	-4%
2	Cc1ccc(CS(=O)(=O)CCC(=O)N2CCC3(CC2)OCCO3)cc1	-1	-17	2.3	-5	-5%
3	O=C(N/N=C/c1ccccc1O)c1cc[n+]([O-])cc1	/	/	2.5	2	/
4	CN1CCN(Cc2nc3c(c(=O)[nH]c(=O)n3C)n2Cc2c(F)cccc2Cl)CC1	/	/	-2.0	-2	7%
5	O=C(C1=C[C@@H](c2ccccc2)C[C@@H](OCc2ccc(CO)cc2)O1)N1CCCCCCC1	0	/	6.5	-4	/
6	COc1ccc(CCC(=O)N2CCCC(Nc3ccccc3)C2)cc1OC (centres undefined)	/	/	-0.1	?	/
7	O=C(Nc1cccc(NC(=O)c2cccc(F)c2)c1)c1ccccc1	/	/	-4.9	4	/
8	COc1ccccc1NC(=S)N(c1ccccc1)C(C)C	13	/	-1.1	37	1%
9	COc1ccc([C@@H](C)NC(=O)CCc2nnc(-c3cc(C)on3)o2)cc1	4	/	0.6	-2	2%
10	CSc1cccc(NS(=O)(=O)c2cc(Br)cnc2N)c1	/	/	-1.5	-4	/
11	COc1cccc(/C=N/NC(=O)c2cc(C34CC5CC(CC(C5)C3)C4)[nH]n2)c1	0	0	5.7	78	-6%
12	Cc1ccc(-c2nnc(-c3ccccc3S(=O)(=O)Cc3ccc(Cl)cc3)o2)cc1	-1	-27	0.8	23	7%
13	CCOC(=O)C(Cc1ccccc1)C(=O)c1ccco1 (centres undefined)	/	/	-0.7	-2	/
14	COC(=O)c1sccc1NC(=O)c1cccc(OC)c1	3	-7	0.6	-4	38%
15	COc1cccc(NC(=S)NCc2ccc3c(c2)cc(C)n3C)c1	-8	/	5.0	/	5%
16	O=C(CSc1nnc(-c2ccc(Br)cc2)o1)Nc1cccc2ccccc12	0	-10	-1.1	51	5%
17	O=C(NCCNC1CCN(Cc2ccccc2)CC1)c1cccs1	-8	-22	0.2	-17	/
18	Cc1occc1C(=O)Nc1cccc([N+](=O)[O-])c1C	/	/	2.5	-4	-2%
19	COc1ccc(CC(=O)Nc2c(C(=O)N3CCN(c4ccccc4)CC3)oc3ccccc23)cc1OC	/	/	2.0	-1	/
20	CC(=O)N(Cc1cccnc1)Cc1cc2ccccc2[nH]c1=O	4	-49	0.0	-9	-7%
21	CCc1ccc2nc(SCC(=O)NCC3CCCO3)c(C#N)cc2c1 (centres undefined)	6	/	-1.8	2	-6%
22	CCC/C(=N\NC(=O)c1ccc(OC)c(OC)c1)c1ccccc1	0	/	-5.0	0	-3%
23	CN(CC(=O)Nc1ccc(S(=O)(=O)N2CCCC2)cc1)CC(=O)Nc1cccc(F)c1	-8	/	2.0	0	2%
24	Cc1cc(O)c(/C=N/Nc2cccc(Cl)c2)c(=O)o1	-33	-30	-2.5	97	?
25	CCOC(=O)C1CCN(C(=O)c2cccnc2Cl)CC1	12	-109	2.4	5	-3%
26	O=C(Nc1ccc(Cl)cc1C(=O)NCC1CCCO1)c1ccc(Cl)cc1Cl (centres undefined)	8	0	-2.6	56	26%
27	CN(C)S(=O)(=O)N1CCN(c2ccccc2Cl)CC1	1	-2	-0.7	0	-3%
28	COc1cccc(-c2cc(=O)[nH][nH]2)c1	-6	/	98*	-3	-7%
29	Cc1ccccc1SCC(=O)Nc1cc(S(=O)(=O)N2CCOCC2)ccc1N1CCOCC1	/	/	-0.6	-5	2%
30	COc1ccc(C(F)(F)F)cc1N/C=C\c1nnnn1-c1ccc(C)cc1	0	-26	-1.3	-3	-6%
31	O=C(c1noc2c1CCc1ccccc1-2)N1CCOCC1	4	3	0.0	-16	-1%
32	CCn1c(-c2ccc3ncccc3c2)n[nH]c1=S	1	-29	-0.7	7	3%
33	Clc1cccc(Cl)c1C[n+]1ccc2ccccc2c1	/	/	-3.8	8	/
34	COc1ccc(CC(=O)NCC2CCCN(Cc3ccc(F)c(OC)c3)C2)cc1 (centres undefined)	/	/	-3.5	10	/
35	OC(COC(c1ccccc1)c1ccccc1)CN1CCCCC1 (centres undefined)	-8	4	-1.2	-8	4%
36	O=C(Cc1ccccc1)N1CCN(Cc2ccccc2Cl)CC1	/	/	2.9	-13	/
37	O=C(CNC(=O)C1CCCCC1)Nc1ccccc1	3	-19	-0.8	-9	-7%
38	Cc1nc(CSc2ccc(Cl)cc2)cs1	/	/	2.2	-9	/
39	COC(=O)Cn1cnc2c(nnn2-c2cccc(OC)c2)c1=O	/	/	0.1	-3	/
40	COc1ccc(NC(=O)CN(c2ccc(Cl)cc2)S(C)(=O)=O)cc1OC	/	/	1.9	-4	/
41	COc1ccc(C2C(C#N)=C(N)Nc3nc4ccccc4n32)cc1 (centres undefined)	3	-28	-4.6	-8	3%
42	CCN1C(=O)/C(=C/N(C)C)c2ccccc21	-2	-30	1.4	3	1%
43	Cc1cccc(OCC(=O)NC2CC(C)(C)NC(C)(C)C2)c1	/	/	0.7	1	/
44	O=C(COC(=O)c1c(F)cccc1F)Nc1ccc2[nH]c(=O)[nH]c2c1	3	/	0.4	-2	1%
45	Cc1ccc(N2C(=O)C3N=NN(CC(=O)N4N=C(c5cccc6ccccc56)CC4c4ccccc4)C3C2=O)cc1 (centres undefined)	-3	-35	1.6	7	-7%
46	CCOC(=O)Cn1c(=O)sc2ccccc21	1	-1	-3.0	-11	5%
47	Cc1ccc(NC(=O)C2CCC2)cc1S(=O)(=O)N1CCCCCC1	/	/	2.3	-8	/
48	Cn1c(/N=C/c2c(O)ccc3ccccc23)nc2ccccc21	7	-16	73*	?	/
49	Cc1ccc(NC(=O)CC2S/C(=N/N=C/C=C/c3ccccc3)NC2=O)cc1Cl (centres undefined)	-21	-24	-1.0	2	-1%
50	Cc1nn(-c2ccccc2)c(Cl)c1C(=O)NCC(=O)O	16	-42	-4.2	-14	4%

More structures follow:
no.	Molecule	Arbovirus inh	YopH PTP inh	RecA intein inh	Mtb bLac sens	Mtb growth
51	Cn1c(O)c(C=NCCN2CCOCC2)c(=O)n(C)c1=S	/	/	-0.1	12	0%
52	O=C(CSc1nnc(SCc2ccccc2)s1)N/N=C/c1c(Cl)cccc1Cl	-8	-19	-0.4	8	2%
53	CCOC(=O)C1CCCN(C(=O)c2cn(-c3ccccc3)nc2-c2cccnc2)C1 (centres undefined)	/	/	-1.2	-5	/
54	N#Cc1c(N)n(-c2ccc(C(=O)O)cc2)c2nc3ccccc3nc12	/	/	-247	1	-9%
55	CC(C)CC(C(=O)NC(C)(C)C)N(Cc1ccccc1Cl)C(=O)c1snc(C(N)=O)c1N (centres undefined)	/	/	1.0	-2	/
56	CC(C)(C)c1[nH]nc2c1C(c1ccncc1)C(C#N)=C(N)O2 (centres undefined)	9	28	1.2	-17	-1%
57	O=C1CC(c2ccc(S(=O)(=O)NCCOc3ccccc3)cc2)CN1 (centres undefined)	8	-30	0.0	-2	17%
58	Cn1c(SCC(=O)Nc2cccc3ccccc23)nc(O)cc1=O	7	-11	8.8	2	-9%
59	Cc1ccc(-c2csc(N=C(N)N)n2)cc1	/	/	2.3	-3	2%
60	CC(C)CCN1CCN(Cc2ccc(Oc3ncccn3)cc2)CC1CCO (centres undefined)	-5	/	-0.2	-6	3%
61	O=C(c1ccc(COCC(F)(F)F)cc1)N1CCN(c2ccccn2)CC1	-1	/	0.7	-8	-7%
62	OCC1(CCOc2ccccc2)CCN(Cc2cn[nH]c2-c2ccccc2)CC1	-8	/	0.4	1	3%
63	Cc1ccccc1Cn1nnc2c1C(=O)c1ccccc1C2=O	-20	41	/	6	-9%
64	O=C(O)/C(=C\c1ccccc1OC(F)F)c1ccc(-c2ccccc2)cc1	/	/	4.9	-1	/
65	COc1ccc(C(=O)NCc2ccc(C)cc2)cc1S(=O)(=O)N1CCCc2ccccc21	-12	-20	-1.7	0	7%
66	CCOc1ccccc1CNc1nc2nc3c(c(=O)n2[nH]1)CCC3	9	-6	3.8	28	-3%
67	NC(=O)c1ccsc1NC(=O)COC(=O)c1ccc(Cl)nc1	/	/	3.7	-3	/
68	O=C(c1ccc(C(=O)N2CCOCC2)s1)N1CCOCC1	7	-15	-0.9	13	/
69	CC(Oc1ccccc1)C(=O)Nc1nnc(S(=O)(=O)N2CCCCCC2)s1 (centres undefined)	/	/	4.7	0	/
70	O=C(NCc1ccc(F)cc1)c1ccc2c(=O)n3c(nc2c1)CCCCC3	/	/	0.0	?	/
71	O=C1CSC(=S)N1c1ccc(Cl)c(Cl)c1	/	/	19	5	/
72	Cc1nc2c(=O)n(C)c(=O)nc-2n(C)n1	-27	101*	98*	100	/
73	CC12CCC(C(=O)NC(c3ccccc3)c3ccccc3)(OC1=O)C2(C)C (centres undefined)	-4	0	2.1	-8	-2%
74	CC(C)N1CCN(CCCc2ccccc2)CC1CCO (centres undefined)	/	/	-1.2	2	/
75	COc1ccccc1NC(=O)C12CC3CC(C1)CC(c1ccc(C)cc1)(C3)C2	32*	-20	6.7	4	-8%
76	Cc1ccc(NC(=S)NCc2ccc(S(N)(=O)=O)cc2)cc1Cl	17	/	1.2	16	20%
77	COc1ccc(C(=O)Cc2cc(OC)c(OC)cc2[N+](=O)[O-])cc1	-6	-50	-3.3	-3	-3%
78	O=C(N/N=C/c1ccccc1OC(F)F)c1cc(-c2ccncc2)nc2ccccc12	-3	/	1.1	-1	0%

Single records, as listed above. Order of values: Arbovirus inh, YopH PTP inh, RecA intein inh, Mtb bLac sens, Mtb growth
Results for Cc1ccc(NC(=S)NCc2ccc(S(N)(=O)=O)cc2)cc1Cl = 17, /, 1.2, 16, 20%
Results for O=C1CC(c2ccc(S(=O)(=O)NCCOc3ccccc3)cc2)CN1 (centres undefined) = 8, -30, 0.0, -2, 17%

Only part of the results is shown, so the mix of outcomes need not match the whole.
